# HIV Env fusion = HIV envelope-mediated fusion inhibition; HeLa-JRFL Env/CEM21 cell fusion, luciferase; inhibition, % at 12.3 µM; hit rate 1.1% among 360,000; AID 651610;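 active means mean replicate inhibition score of at least 50 and every replicate individually at or above 50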;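 further: 0% = plate neutral controls and 100% = maraviroc near 300 nM; one replicate is shown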
# UUG fidelity = alters start codon recognition fidelity in yeast; hit rate 0.13% among 350,000; S. cerevisiae UUG-firefly luciferase reporter, luminescence/redox ratio; activity score, % at 18.7 µM; AID 602363;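 active means replicate mean at a twofold rise or more, about +100% in these data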;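 further: firefly luciferase made from a UUG start codon reports start codon fidelity; reporter light over untreated wells divided by growth signal over untreated wells; some hits fall short of that in this replicate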
# The depositor's hits bear a star; [ ] = another dose, or the depositor's remark. A portion of the library (hit frequency here may not be typical).
Structure,HIV Env fusion,UUG fidelity
C[C@@H]1CN([C@@H](C)CO)C(=O)Cc2cc(NS(=O)(=O)c3cn(C)cn3)ccc2O[C@@H]1CN(C)C(=O)Nc1ccc2c(c1)OCO2,3.5[16.7 µM],7.0
C[C@@H]1CN([C@@H](C)CO)S(=O)(=O)c2ccc(C#Cc3ccccc3)cc2O[C@@H]1CN(C)C(=O)C1CC1,-23.5[16.7 µM],-28.6
Cc1noc(C)c1NC(=O)N(C)C[C@H]1Oc2ncc(/C=C/c3ccccc3)cc2C(=O)N([C@@H](C)CO)C[C@@H]1C,0.8[16.7 µM],3.9
CCCNC(=O)Nc1ccc2c(c1)C(=O)N(C)C[C@H](OC)[C@H](C)CN(C(C)=O)[C@H](C)CO2,8.4[16.7 µM],19.0
O=C(C[C@H]1C[C@@H]2c3cc(NC(=O)c4cccnc4)ccc3O[C@@H]2[C@@H](CO)O1)NCc1ccc(Oc2ccccc2)cc1,-3.4[16.7 µM],-4.0
C[C@@H]1CCCCO[C@H](CN(C)Cc2ccccc2)[C@H](C)CN([C@@H](C)CO)C(=O)c2cc(NS(C)(=O)=O)ccc2O1,-10.6[16.7 µM],16.1
COc1ccc(NC(=O)Nc2ccc3c(c2)C(=O)N([C@H](C)CO)C[C@@H](C)[C@H](CN(C)Cc2ccc(C(F)(F)F)cc2)OCCCC[C@@H](C)O3)cc1,68.4*[16.7 µM],-17.2
C[C@@H]1CN([C@H](C)CO)C(=O)Cc2cc(NS(=O)(=O)c3ccccc3)ccc2O[C@@H]1CN(C)S(=O)(=O)c1ccc(F)cc1,-41.3[16.7 µM],8.8
C[C@@H]1CN([C@H](C)CO)C(=O)Cc2cc(NC(=O)Nc3ccc(F)cc3)ccc2O[C@H]1CN(C)CC1CCCCC1,17.1[16.7 µM],-0.4
COc1cccc(-c2ccc3c(c2)O[C@@H](CN(C)C(=O)C2CCCCC2)[C@@H](C)CN([C@H](C)CO)S3(=O)=O)c1,4.5[16.7 µM],8.3
COc1ccc(S(=O)(=O)N(C)C[C@@H]2Oc3ccc(NC(=O)CCCCCC(=O)Nc4ccccc4N)cc3CC(=O)N([C@@H](C)CO)C[C@H]2C)cc1,8.4[16.7 µM],0.0
CC(=O)N(C)C[C@@H]1Oc2cc(C#Cc3cccnc3)ccc2S(=O)(=O)N([C@H](C)CO)C[C@@H]1C,17.5[16.7 µM],7.2
C[C@@H]1CN([C@H](C)CO)C(=O)c2cccc(N(C)C)c2O[C@H]1CN(C)Cc1ccc(C(=O)O)cc1,-1.6[16.7 µM],-10.7
C[C@@H]1CN([C@@H](C)CO)C(=O)c2cc(NC(=O)C3CC3)ccc2O[C@@H]1CN(C)C(=O)Nc1ccccc1,-17.3[16.7 µM],-1.1
CC(C)CC#Cc1ccc2c(c1)O[C@H](CN(C)Cc1cccnc1)[C@H](C)CN([C@@H](C)CO)S2(=O)=O,29.9[16.7 µM],-8.7
O=C(NCC[C@H]1CC[C@@H](NC(=O)C2CCOCC2)[C@H](CO)O1)Nc1ccc(Cl)cc1,1.4[16.7 µM],-9.8
CCCNC(=O)C[C@H]1CC[C@@H]2[C@H](COc3ccc(NC(=O)Nc4ccccc4)cc3C(=O)N2C)O1,14.8[16.7 µM],14.0
Cc1ccc(-c2cnc3c(c2)C(=O)N([C@H](C)CO)C[C@H](C)[C@@H](CN(C)C)O3)cc1,6.9[16.7 µM],-16.2
CCC(=O)N(C)C[C@H]1Oc2ncc(C#Cc3ccccc3OC)cc2C(=O)N([C@@H](C)CO)C[C@@H]1C,-13.0[16.7 µM],-14.9
CNC[C@H]1Oc2c(NC(=O)Nc3ccc4c(c3)OCO4)cccc2C(=O)N([C@H](C)CO)C[C@@H]1C,63.8*[16.7 µM],8.4
CC(C)C#Cc1ccc2c(c1)O[C@@H](CN(C)C(=O)c1cccc(F)c1)[C@H](C)CN([C@@H](C)CO)S2(=O)=O,14.3[16.7 µM],-6.6
CCCNC(=O)N(C)C[C@H]1Oc2ncc(C#CC3CCCCC3)cc2C(=O)N([C@H](C)CO)C[C@@H]1C,9.0[16.7 µM],17.4
C[C@H]1CN([C@@H](C)CO)C(=O)c2cc(NS(=O)(=O)c3ccc(Cl)cc3)ccc2O[C@H]1CN(C)CC1CCCCC1,-6.8[16.7 µM],4.3
O=C(CN1CCOCC1)NCC[C@H]1CC[C@@H](NC(=O)Nc2ccccc2)[C@@H](CO)O1,-6.2[16.7 µM],-1.0
CC(C)CC#Cc1cnc2c(c1)C(=O)N([C@H](C)CO)C[C@H](C)[C@@H](CN(C)CC1CCOCC1)O2,8.5[16.7 µM],43.3
CC(C)NC(=O)Nc1ccc2c(c1)CC(=O)N([C@H](C)CO)C[C@H](C)[C@H](CN(C)Cc1ccc(-c3ccccc3)cc1)O2,-19.4[16.7 µM],-2.7
O=C(NCC[C@@H]1CC[C@@H](NS(=O)(=O)c2ccc(F)cc2)[C@@H](CO)O1)c1ccc2c(c1)OCO2,-110.6[16.7 µM],-9.6
Cc1noc(C)c1S(=O)(=O)Nc1ccc2c(c1)CC(=O)N([C@@H](C)CO)C[C@H](C)[C@@H](CN(C)CC1CCCCC1)O2,5.6[16.7 µM],-11.3
C[C@@H]1CN([C@@H](C)CO)C(=O)c2cc(NC(=O)CCC(F)(F)F)ccc2O[C@@H](C)CCCCO[C@@H]1CN(C)C(=O)Nc1ccc(C(F)(F)F)cc1,14.5[16.7 µM],-17.3
C[C@@H]1CN([C@H](C)CO)C(=O)c2cc(C3=CCCCC3)cnc2O[C@H]1CN(C)C(=O)c1cccc(F)c1,-10.1[16.7 µM],-8.4

# Three structures out of the list, arranged by number of heavy atoms, rising:
Structure,HIV Env fusion,UUG fidelity
CCCNC(=O)C[C@H]1CC[C@@H]2[C@H](COc3ccc(NC(=O)Nc4ccccc4)cc3C(=O)N2C)O1,14.8[16.7 µM],14.0
Cc1noc(C)c1NC(=O)N(C)C[C@H]1Oc2ncc(/C=C/c3ccccc3)cc2C(=O)N([C@@H](C)CO)C[C@@H]1C,0.8[16.7 µM],3.9
COc1ccc(NC(=O)Nc2ccc3c(c2)C(=O)N([C@H](C)CO)C[C@@H](C)[C@H](CN(C)Cc2ccc(C(F)(F)F)cc2)OCCCC[C@@H](C)O3)cc1,68.4*[16.7 µM],-17.2

# Quoted at random: 2 compounds from above, in no set order.
Structure,HIV Env fusion,UUG fidelity
Cc1noc(C)c1S(=O)(=O)Nc1ccc2c(c1)CC(=O)N([C@@H](C)CO)C[C@H](C)[C@@H](CN(C)CC1CCCCC1)O2,5.6[16.7 µM],-11.3
CCC(=O)N(C)C[C@H]1Oc2ncc(C#Cc3ccccc3OC)cc2C(=O)N([C@@H](C)CO)C[C@@H]1C,-13.0[16.7 µM],-14.9

# Continuation.
Structure,HIV Env fusion,UUG fidelity
C[C@H]1CCCCO[C@H](CN(C)C(=O)CCCN(C)C)[C@@H](C)CN([C@@H](C)CO)C(=O)c2cc(NC(=O)c3ccncc3)ccc2O1,10.4[16.7 µM],-3.1
CC(C)NC(=O)Nc1ccc2c(c1)C(=O)N(C)[C@@H]1CC[C@H](CC(=O)NCC(F)(F)F)O[C@@H]1CO2,-1.4[16.7 µM],16.3
CC(C)NC(=O)Nc1cccc2c1O[C@H](CN(C)S(=O)(=O)c1cn(C)cn1)[C@@H](C)CN([C@@H](C)CO)C2=O,-19.7[16.7 µM],-11.3
Cc1ccc(S(=O)(=O)Nc2ccc3c(c2)CC(=O)N([C@H](C)CO)C[C@@H](C)[C@H](CN(C)S(=O)(=O)c2ccc(C)cc2)O3)cc1,-0.9[16.7 µM],2.4
C[C@@H]1CN([C@H](C)CO)C(=O)c2cc(NC(=O)c3ccccc3)ccc2O[C@@H](C)CCCCO[C@H]1CN(C)C(=O)Nc1ccc(F)cc1,-19.4[16.7 µM],-0.8
C[C@@H]1CCCCO[C@@H](CN(C)C(=O)c2ccccc2)[C@H](C)CN([C@H](C)CO)C(=O)c2cc(NS(=O)(=O)c3ccc(F)cc3)ccc2O1,-28.0[16.7 µM],14.6
C[C@@H]1CN([C@@H](C)CO)C(=O)c2cc(NC(=O)Nc3ccc4c(c3)OCO4)ccc2O[C@@H](C)CCCCO[C@H]1CN(C)C(=O)CCCN(C)C,-7.9[16.7 µM],-6.8
C[C@@H]1CN([C@H](C)CO)C(=O)c2cccc(NS(=O)(=O)c3ccc(Cl)cc3)c2O[C@H]1CN(C)Cc1ccc(C(=O)O)cc1,-1.9[16.7 µM],7.1
C[C@@H]1CCCCO[C@@H](CN(C)S(C)(=O)=O)[C@@H](C)CN([C@H](C)CO)C(=O)c2cc(NC(=O)Nc3ccc4c(c3)OCO4)ccc2O1,-0.2[16.7 µM],33.1
C[C@H]1CN([C@@H](C)CO)C(=O)c2cc(/C=C/c3ccccc3)cnc2O[C@@H]1CN(C)C(=O)c1ccncc1,13.6[16.7 µM],1.6
CNC[C@H]1Oc2cc(C#Cc3ccncc3)ccc2S(=O)(=O)N([C@H](C)CO)C[C@H]1C,-16.4[16.7 µM],128.8*
COc1ccccc1C#Cc1cnc2c(c1)C(=O)N([C@@H](C)CO)C[C@H](C)[C@@H](CN(C)C)O2,-7.2[16.7 µM],1.3
C[C@@H]1CN([C@@H](C)CO)C(=O)c2cc(NC(=O)C3CCCCC3)ccc2O[C@@H]1CN(C)CC1CC1,-4.7[16.7 µM],-10.7
C[C@H](CO)N1C[C@H](C)[C@@H](CN(C)S(=O)(=O)c2ccc(Cl)cc2)Oc2c(NS(=O)(=O)c3ccc(F)cc3)cccc2C1=O,-23.3[16.7 µM],12.2
C[C@@H]1CN([C@@H](C)CO)S(=O)(=O)c2ccc(-c3ccc(F)cc3)cc2O[C@@H]1CN(C)Cc1cccc(F)c1,35.2[16.7 µM],4.7
O=C(C[C@@H]1CC[C@H](NC(=O)c2ccccn2)[C@H](CO)O1)NCc1cc(F)cc(F)c1,-5.0[16.7 µM],3.4
C/C=C/c1ccc2c(c1)O[C@@H](CN(C)Cc1cccc(F)c1)[C@H](C)CN([C@H](C)CO)S2(=O)=O,6.6[16.7 µM],-6.0
C[C@@H]1CN([C@H](C)CO)C(=O)c2cc(-c3ccc(C#N)cc3)cnc2O[C@H]1CN(C)C(=O)CN(C)C,-14.9[16.7 µM],-5.6
C[C@@H]1CN([C@@H](C)CO)C(=O)c2cc(Br)cnc2O[C@H]1CN(C)Cc1ccccn1,1.4[16.7 µM],-16.6
C[C@@H]1CN([C@H](C)CO)C(=O)c2cc(NC(=O)CCC(F)(F)F)ccc2O[C@@H]1CN(C)C(=O)Nc1cccc2ccccc12,22.3[16.7 µM],15.4
CCNC(=O)C[C@H]1CC[C@H]2[C@H](COc3ccc(NC(=O)c4cscn4)cc3C(=O)N2C)O1,22.4[16.7 µM],13.8
COc1ccc(NC(=O)N(C)C[C@@H]2Oc3ccc(NC(=O)Nc4ccc(F)cc4)cc3C(=O)N([C@H](C)CO)C[C@H]2C)cc1,0.2[16.7 µM],3.0
CO[C@@H]1CN(C)C(=O)c2ccc(NC(=O)c3ccccc3)cc2OC[C@H](C)N(CC2CC2)C[C@H]1C,-6.5[16.7 µM],9.0
CCNC(=O)C[C@@H]1CC[C@H]2[C@@H](COc3ccc(NC(=O)Nc4ccccc4OC)cc3C(=O)N2C)O1,4.3[16.7 µM],18.2
COc1ccccc1NC(=O)N[C@@H]1CC[C@@H](CC(=O)N[C@H](C)c2ccccc2)O[C@@H]1CO,4.3[16.7 µM],-5.3
C[C@@H]1CN([C@@H](C)CO)C(=O)c2cc(C#CCN(C)C)cnc2O[C@@H]1CN(C)Cc1ccccc1,-9.4[16.7 µM],-11.0
C[C@H]1CN([C@@H](C)CO)C(=O)c2cc(NC(=O)c3ccncc3)ccc2O[C@@H]1CN(C)Cc1ccccc1,-28.9[16.7 µM],3.9
CC(C)NC(=O)N(C)C[C@@H]1Oc2ncc(C#Cc3ccccc3F)cc2C(=O)N([C@@H](C)CO)C[C@H]1C,-19.1[16.7 µM],-3.0
COc1ccccc1-c1ccc2c(c1)O[C@H](CN(C)C(=O)c1ccccc1)[C@@H](C)CN([C@@H](C)CO)S2(=O)=O,-40.9[16.7 µM],0.7
Cc1ccc(S(=O)(=O)Nc2ccc3c(c2)C(=O)N([C@@H](C)CO)C[C@H](C)[C@@H](CN(C)S(=O)(=O)c2cccs2)OCCCC[C@@H](C)O3)cc1,9.5[16.7 µM],-10.9

# Next section.
Structure,HIV Env fusion,UUG fidelity
CO[C@H]1CN(C)C(=O)c2ccc(NC(=O)NC(C)C)cc2OC[C@@H](C)N(C(=O)NC(C)C)C[C@H]1C,18.6[16.7 µM],17.5
COc1ccc(NC(=O)N(C)C[C@H]2OCCCC[C@@H](C)Oc3ccc(NC(=O)NC4CCCCC4)cc3C(=O)N([C@H](C)CO)C[C@H]2C)cc1,-5.4[16.7 µM],21.6
C[C@@H]1CN([C@@H](C)CO)S(=O)(=O)c2ccc(C#Cc3cccnc3)cc2O[C@@H]1CN(C)C(=O)CN(C)C,-34.0[16.7 µM],15.1
C[C@H]1CN([C@@H](C)CO)C(=O)Cc2cc(NC(=O)Cn3cnnn3)ccc2O[C@H]1CN(C)CC1CCCCC1,-13.2[16.7 µM],11.4
Cc1noc(C)c1NC(=O)Nc1ccc2c(c1)C(=O)N([C@H](C)CO)C[C@H](C)[C@@H](CN(C)C(=O)Nc1ccc3c(c1)OCO3)OCCCC[C@@H](C)O2,3.9[16.7 µM],7.2
CCC(=O)N(C)C[C@H]1Oc2cc(-c3cccc(OC)c3)ccc2S(=O)(=O)N([C@@H](C)CO)C[C@@H]1C,-1.6[16.7 µM],6.0
C[C@@H]1CN([C@H](C)CO)C(=O)Cc2cc(NS(=O)(=O)c3ccccc3)ccc2O[C@@H]1CN(C)S(=O)(=O)c1ccccc1,-12.5[16.7 µM],3.4
COc1ccc(NC(=O)N(C)C[C@H]2Oc3ccc(NC(=O)CCCCCC(=O)Nc4ccccc4N)cc3CC(=O)N([C@@H](C)CO)C[C@H]2C)cc1,10.1[16.7 µM],6.4
C[C@@H]1CN([C@@H](C)CO)C(=O)c2cc(NC(=O)CCC(F)(F)F)ccc2O[C@H]1CN(C)S(C)(=O)=O,1.9[16.7 µM],15.6

# Screening data from PubChem.
